HPGD inh: qHTS Assay for Inhibitors of HPGD (15-Hydroxyprostaglandin Dehydrogenase) | AID 894, 2007 | Potency, µM, for inactives: top-dose activity change, negative = inhibition, hits mostly inhibitors | purified HPGD, NADH fluorescence kinetic, PGE2 substrate | actives 4.3% (n = 150,000) | 15-hydroxyprostaglandin dehydrogenase [NAD(+)] (Homo sapiens), P15428; active = well fitted inhibition curve with a large enough effect (not every such curve was filed as active); inconclusive = small, poorly fitted or top-dose-only effect, or another doubt; inactive = no such curve, though single readings can be large or run the other way;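 further: top concentration of the series not given in the record; plate controls included wells without enzyme; inactives centre near -10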
Target sequence (P15428 whole entry, looked up): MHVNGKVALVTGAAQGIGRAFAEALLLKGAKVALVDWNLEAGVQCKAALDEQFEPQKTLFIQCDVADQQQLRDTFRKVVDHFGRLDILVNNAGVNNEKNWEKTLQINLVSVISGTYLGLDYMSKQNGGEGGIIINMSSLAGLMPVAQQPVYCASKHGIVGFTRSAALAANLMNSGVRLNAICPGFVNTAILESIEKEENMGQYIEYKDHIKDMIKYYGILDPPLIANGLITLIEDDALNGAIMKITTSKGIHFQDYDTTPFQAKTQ
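20 nM HPGD preincubated 15 min at room temperature with compound in 50 mM Tris-HCl pH 8, 0.01% Tween 20. Started with 1 mM NAD+ and 30 uM prostaglandin E2; NADH fluorescence (360/450 nm) read 5 times over 30-s intervals, last minus first.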
An asterisk follows results filed as active; ? = inconclusive. On the % scale 0 is the no-effect control and ±100 the full control effect; potency means the concentration at half of the fitted maximal effect. Some of the compounds tested; the hit share may differ from the screen's.

SMILES	HPGD inh
CC(=O)Nc1ccc(NC(=O)CN(c2ccc(F)cc2)S(=O)(=O)c2ccc3c(c2)OCCO3)cc1	-20%
CCOC(=O)c1nn(-c2cccc(C)c2)cc1C(=O)c1ccccc1	-25%
CC(C)(C)C(=O)NCC12C=CC(O1)C1C(=O)N(c3ccccc3)C(=O)C12 (configuration not stated)	20µM*
CS(=O)(=O)C1=NSC2=NC(=O)/C(=C\c3cccn3-c3ccc(Cl)cc3)C(=N)N21	-16%
COCCN(CC(=O)NCc1ccccc1)C(=O)CCC(=O)Nc1nccs1	-12%
O=C(COc1ccc(Cl)cc1Cl)N(Cc1ccco1)C1CCS(=O)(=O)C1 (configuration not stated)	-18%
CCOC(=O)c1c(-c2ccc(C)o2)csc1NC(=O)CSc1nnc(C)s1	?
COc1ccc(/C=C2\C(=O)NCC(=O)N2Cc2ccccc2)cc1	-7%
O=C(N1CCOCC1)N(Cc1cccs1)C1CCCC1	-9%
COc1ccc(N2C(=O)CC(N3CCN(c4ccc(S(C)(=O)=O)cc4)CC3)C2=O)cc1 (configuration not stated)	-12%
O=C(NCc1ccco1)c1cc2nc(-c3cccs3)cc(C(F)(F)F)n2n1	?
CC(C)CCOc1ccc(C(=O)C[N+]2(C)CCOCC2)cc1	-23%
CCOC(=O)c1csc(NC(=O)c2ccc(OC)c(OC)c2)n1	-8%
CCOC(=O)C1CCN(C(=O)N(C)C)CC1	-17%
Cc1nnc(SCCn2c(N3CC(C)CC(C)C3)nc3c2c(=O)[nH]c(=O)n3C)s1 (configuration not stated)	-6%

Three structures already listed, sorted by formula weight, highest first:
SMILES	HPGD inh
O=C(NCc1ccco1)c1cc2nc(-c3cccs3)cc(C(F)(F)F)n2n1	?
CC(C)(C)C(=O)NCC12C=CC(O1)C1C(=O)N(c3ccccc3)C(=O)C12 (configuration not stated)	20µM*
O=C(N1CCOCC1)N(Cc1cccs1)C1CCCC1	-9%

(next part)
SMILES	HPGD inh
COc1ccc(-c2nn(-c3ccccc3)cc2/C=C(\C#N)S(=O)(=O)c2ccccc2)cc1OC	-22%
CC12CCC(C(=O)Nc3cccc4ccccc34)(C1Br)C2(C)C (configuration not stated)	-4%
COc1ccc(CCC(C)Nc2ccccc2F)cc1 (configuration not stated)	-9%
O=C(Nc1c(-c2ccccc2)nc2ncccn12)c1cc2ccccc2oc1=O	-7%
O=C(NC1CC1)c1ccc2c(c1)C1C3CCC(C3)C1C(c1ccccc1)N2 (configuration not stated)	-20%
COc1ccccc1N1CCN(Cc2nc(N)nc(Nc3ccccc3)n2)CC1	-3%
CN(C)c1ccc(N=Nc2ccccc2C(=O)OCC(=O)NCC2CCCCC2)cc1	-18%
Cc1[nH]n(-c2cccc(Cl)c2)c(=O)c1-c1ccccc1	-29%
O=C(NCCc1ccccc1)C(=O)NCc1ccncc1	-3%
CC1(C)Cc2ccccc2-c2nc(NCCCO)n(-c3ccccc3)c(=O)c21	?
Fc1ccccc1CNC(=S)Nc1cccc(C(F)(F)F)c1	-30%
COc1cc(C)c(S(=O)(=O)N2CCCC2)cc1C	-15%
COC(=O)c1cc(CC(=O)c2ccc(O)cc2O)c(C)o1	16µM*
O=C(O)CCc1ccc(-c2ccc(F)cc2)n1CC(=O)O	-11%
CCCOc1ccc(-c2cnc(N)s2)cc1	-20%
CCOC(=O)c1cnc(SC)nc1Oc1cccc(NS(=O)(=O)c2ccccc2)c1	-20%
CCn1cc(C(=O)N2CCN(c3cccc(Cl)c3)CC2)c2cc(OC)c(OC)cc2c1=O	-14%
Cc1cc(C)c(S(=O)(=O)N(CC(=O)NCc2cccnc2)C2CCCCC2)c(C)c1	-8%
CCOC(=O)c1cn(-c2c(Cl)cccc2Cl)c2cc(Cl)c([N+](=O)[O-])cc2c1=O	-6%
O=C(N1CCOCC1)N1CCN(CC(O)COc2ccc3ccccc3c2)CC1 (configuration not stated)	-2%
CCOc1ccc(N2C(=O)/C(=C/c3ccc(C)o3)N(C)C2=S)cc1	-30%
CC(NC(=O)Nc1ccc(O)cc1)(C(F)(F)F)C(F)(F)F	-7%
CN(C)CCN1C(=O)C(=O)/C(=C(/O)c2ccc(S(=O)(=O)N3CCOCC3)cc2)C1c1ccccc1 (configuration not stated)	-10%
CCOc1ccc(Cn2c3ccc(OC)cc3c3nc4ccccc4nc32)cc1OC	-5%
Cc1cccc(NC(=S)NNC(=O)c2sccc2C)c1	-7%
CC(=O)Nc1ccc(OC(F)(F)C(F)C(F)(F)F)c(NC(C)=O)c1 (configuration not stated)	-5%
Cc1cc(C)nc(NC2=NCC(=O)N2c2ccc(Cl)cc2)n1	-7%
CCCC(=O)N1CCN(c2ccc(NC(=O)c3cc4ccccc4o3)cc2)CC1	-5%
CSc1ccc(C(=S)N2CCN(CCO)CC2)cc1	25µM*
O=C(c1ccco1)n1nc(-c2ccccc2)nc1NCc1ccco1	-20%
O=C(NC1CC1)C1CCC(=O)N1C1CCCC1 (configuration not stated)	-8%
CCN(CCNC(=O)C1CCN(S(=O)(=O)CC)CC1)c1ccccc1	-8%
CC12C(=O)N(c3cccc4cccnc34)C(=O)C1C1C=CC2C1 (configuration not stated)	-12%
COc1cccc(-n2c(Cn3nc(C(F)F)cc3C(F)F)n[nH]c2=S)c1	-21%
COc1cc(C2Nc3cc(Cl)c(S(N)(=O)=O)cc3S(=O)(=O)N2)ccc1OCc1ccccc1 (configuration not stated)	-20%
CCCCn1c(N)c(N(CCC(C)C)C(=O)CSc2nnc3ccccn23)c(=O)[nH]c1=O	-9%
C=CCn1cc([N+](=O)[O-])nc1C	-7%
CN1C(=O)SC(Nc2ccc(F)cc2)C1=O (configuration not stated)	5%
Nn1c(SCC(=O)NC(=O)NCc2ccccc2)nnc1C1CC1	-28%
Cc1cccc(NC(=O)C2CCCN(S(=O)(=O)c3c(C)nn(C)c3C)C2)n1 (configuration not stated)	-7%
O=C(O)CCC(=O)N1CCc2cc(S(=O)(=O)Nc3ccc4c(c3)OCCO4)ccc21	25µM*
CC(C)CCn1c(Oc2ccccc2Cl)nc2c1c(=O)n(C)c(=O)n2C	-6%
CC1(C)NC(=O)N(CC(O)Cn2nnc3ccccc32)C1=O (configuration not stated)	1%
Cc1cccn2cc(-c3ccc(S(=O)(=O)N4CCOCC4)cc3)nc12	?
CC(C)C[C@@H](CC(=O)N[C@H](CC(=O)N[C@@H]1CCNC[C@H]1C(=O)N[C@H](CC(=O)N[C@@H](CCC(=O)O)CC(=O)O)CC(C)C)C(C)C)NC(=O)[C@@H]1CCCC[C@H]1N	-3%

A draw from above in order of length of the SMILES, falling:
SMILES	HPGD inh
CC(C)C[C@@H](CC(=O)N[C@H](CC(=O)N[C@@H]1CCNC[C@H]1C(=O)N[C@H](CC(=O)N[C@@H](CCC(=O)O)CC(=O)O)CC(C)C)C(C)C)NC(=O)[C@@H]1CCCC[C@H]1N	-3%
COc1cc(C2Nc3cc(Cl)c(S(N)(=O)=O)cc3S(=O)(=O)N2)ccc1OCc1ccccc1 (configuration not stated)	-20%
CCCCn1c(N)c(N(CCC(C)C)C(=O)CSc2nnc3ccccn23)c(=O)[nH]c1=O	-9%
O=C(O)CCC(=O)N1CCc2cc(S(=O)(=O)Nc3ccc4c(c3)OCCO4)ccc21	25µM*
Cc1cccc(NC(=O)C2CCCN(S(=O)(=O)c3c(C)nn(C)c3C)C2)n1 (configuration not stated)	-7%
COc1cccc(-n2c(Cn3nc(C(F)F)cc3C(F)F)n[nH]c2=S)c1	-21%
CC(C)CCn1c(Oc2ccccc2Cl)nc2c1c(=O)n(C)c(=O)n2C	-6%
Cc1cccn2cc(-c3ccc(S(=O)(=O)N4CCOCC4)cc3)nc12	?
CCN(CCNC(=O)C1CCN(S(=O)(=O)CC)CC1)c1ccccc1	-8%
O=C(c1ccco1)n1nc(-c2ccccc2)nc1NCc1ccco1	-20%
Nn1c(SCC(=O)NC(=O)NCc2ccccc2)nnc1C1CC1	-28%
CSc1ccc(C(=S)N2CCN(CCO)CC2)cc1	25µM*
O=C(NC1CC1)C1CCC(=O)N1C1CCCC1 (configuration not stated)	-8%
CN1C(=O)SC(Nc2ccc(F)cc2)C1=O (configuration not stated)	5%
C=CCn1cc([N+](=O)[O-])nc1C	-7%

More records:
SMILES	HPGD inh
O=C(NCc1ccco1)c1sc2cccc(F)c2c1Cl	4µM*
COc1ccc(CCNC(=O)CSc2nc(N)c(C#N)c(-c3cccs3)c2C#N)cc1OC	?
CCc1nc2ccc(C(=O)O)cc2nc1CC	-14%
Cc1ccc(-c2n[nH]c(=S)n2/N=C\c2ccco2)cc1	22µM*
CN1CCCN(C(c2ccccc2)c2ccc(Cl)cc2)CC1 (configuration not stated)	-8%
CCC(C)Nc1nc2c(c(=O)[nH]c(=O)n2C)n1CCC(C)C (configuration not stated)	-14%
Cc1ccccc1OCCCC(=O)Nc1nccs1	-12%
CCCCCCNC(=O)C(C#N)c1nc2ccccc2nc1N1CCOCC1 (configuration not stated)	-5%
Cc1ccc(C(=O)Nc2cccc(N(C)S(C)(=O)=O)c2)cc1S(=O)(=O)Nc1ccccc1	1%
COc1ccc(CN(C)CC(=O)Nc2cc3oc4ccccc4c3cc2OC)c(OC)c1	?
O=C(CSc1nnc(C2CCCCC2)o1)N1CCCCC1	-23%
CC(C)Oc1cccc(C(=O)NC(=S)Nc2ccc(Cl)c(C(=O)O)c2)c1	-12%
COc1cc(CNc2nc3ccccc3[nH]2)cc(OC)c1OC	-8%
NC(=O)c1c(NC(=O)c2ccc(S(=O)(=O)N3CCOCC3)cc2)sc2c1CCCCC2	5%
CCOC(=O)c1c(NC(=O)c2ccnn2C)sc(C)c1C	?
CN1C2C=C3C(C#N)=C(N)C(C#N)(C#N)[C@@H](c4cccs4)C3C1CC2 (some centres not stated)	?
CCOc1ccc(-c2nnc(-c3ccccc3)o2)cc1	?
CN(C)c1ncc2nc(-c3ccc(F)cc3)c(=O)n(C3CC3)c2n1	?
CCCC(=O)N1CCN(c2ccc(NC(=O)c3cc4ccccc4o3)cc2Cl)CC1	?
CCOc1ccc(S(=O)(=O)Nc2cccc(N(C)S(C)(=O)=O)c2)cc1	-6%
COCCOC(=O)C1=C(C)N=C2SCCC(=O)N2C1c1ccc(C(=O)OC)cc1 (configuration not stated)	-13%
O=C(Nc1ccc2c(c1)nc1n2CCN(Cc2ccccc2)C1)NC1CCCCC1	?
Cc1nn(-c2ccccc2)c(C)c1C(=O)OCC(=O)Nc1ccc2c(c1)OCO2	-5%
COc1cc2c(cc1OC)-c1nnc(C)n1C(C)(C)C2	-7%
COc1cccc(CCC(=O)O)c1OC	-5%
CCN(C(=O)COC(=O)c1cc(-c2ccccc2)nc2c1c(C)nn2-c1ccc(C)cc1)C1CCS(=O)(=O)C1 (configuration not stated)	-27%
N#C/C(=C/c1cn(CC(=O)O)c2ccccc12)c1ccc(F)cc1	-11%
O=C(CSc1nc2c(c(=O)n1-c1ccc(Cl)cc1)SCC2)Nc1nccs1	-14%
COc1ccc(-c2nnc(SCC(=O)NCc3cccs3)n2C)cc1	4%
CNC(=S)N1N=C(c2ccc(C)cc2)CC1c1ccc(Br)cc1 (configuration not stated)	-10%
CCOCCN(C=O)c1cccc(OC)c1	-10%
Cc1sc2nc(CN(C(=O)NC3CCCCC3)C3CCCCC3)[nH]c(=O)c2c1C	?
O=C(NCCOc1ccccc1)c1cc(C(=O)NCCOc2ccccc2)cc([N+](=O)[O-])c1	-8%
COc1cc(C2c3c(oc4ccccc4c3=O)C(=O)N2Cc2cccnc2)cc(OC)c1OC (configuration not stated)	7%
Cc1nc(CNS(=O)(=O)c2cccc(F)c2)cs1	-5%
Cc1cc(N2CCOCC2)c2c(N)c(C)cc(C)c2n1	?
COc1ccc(/C=C2/CCc3ccccc3C2=O)cc1OC	-16%
COCCCNCCOCCOc1c(OC)cccc1OC	-10%
Brc1ccccc1-c1nc(-c2ccccc2)no1	-18%
COc1ccccc1OCC(=O)NCCC1=CCCCC1	-16%
Cc1cccc(OCc2nc(C#N)c(N3CC(C)CC(C)C3)o2)c1 (configuration not stated)	-24%
O=C1CC(N2CCOCC2)C(=O)N1CCc1ccccc1 (configuration not stated)	-7%
CC(C)(Oc1ccc(Cl)cc1)C(=O)Nc1cccnc1	-9%
CCOc1ccc(C2C3=C(Nc4nc(N)[nH]c(=O)c42)c2ccccc2C3=O)cc1 (configuration not stated)	-3%
C=C1C[C@]23C[C@@]1(O)CC[C@H]2[C@@]12C=C[C@H](O)C(C)(C(=O)O1)[C@H]2[C@@H]3CC(=O)O	-4%
c1ccc(Nc2ncnc3c2oc2ccccc23)cc1	?
COC(=O)c1c(O)c2c([nH]c1=O)CCCC2	-3%
CC(C)CCOC(=O)/C(=C/c1ccco1)NC(=O)/C=C/c1ccccc1	-16%
COc1ccc(C(=O)OC(C)C(=O)Nc2cc(C(F)(F)F)ccc2Cl)c(OC)c1OC (configuration not stated)	25µM*
Cc1ccc(C)c(OCC(=O)Nc2ccc(S(=O)(=O)Nc3ccccn3)cc2)c1	?
CCOC(=O)c1ccc(NC(=O)N2CCN(CCc3ccccc3)CC2)cc1	-14%
CCOC(=O)C1CCCN(CC(=O)/C=C2/N(C)c3ccccc3C2(C)C)C1 (configuration not stated)	-17%
O=C(CSc1nnnn1-c1ccc2c(c1)CCC2)Nc1ccc2c(c1)OCCO2	-16%
N/C(=N\c1nc2c(c(=O)[nH]1)CCC2)Nc1cccc2ccccc12	-2%
NC(=O)CSCc1ccc(Br)cc1	-5%
CCn1c(=O)cc(SCC(=O)N2CCN(C3CCCCC3)CC2)c2ccccc21	-8%
COc1cccc(-c2ccc3ncnc(NCc4ccccc4OC)c3c2)c1	?
CCC(=O)N(Cc1c(C)nn(-c2ccccc2)c1Cl)c1ccc(Cl)cc1	-1%
CNC(=S)N(CCc1c(C)[nH]c2ccc(C)cc12)Cc1ccco1	-10%
CCOc1ccc(-c2c(C(=O)N/N=C/c3ccc(OC(C)C)cc3)nnn2-c2nonc2N)cc1	?

Source: PubChem (National Center for Advancing Translational Sciences (NCATS))
